Screens: PubChem, National Center for Advancing Translational Sciences (NCATS)
Pf growth 96h – P. falciparum growth inhibition at 96 hour, primary screen for plastid delayed-death inhibitors. P. falciparum luciferase reporter growth, 96 h. Potency, µM (top dose mostly 28.7 µM), inactives show top-dose activity change, negative = inhibition, actives largely listed as inhibitors. actives 6.9% (n = 320,000). AID 504834
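Two parasite generations (96 h, 37 C, 5% CO2) of compound exposure in infected erythrocytes (0.05% parasitemia, 2% hematocrit). Luciferase-reporter P. falciparum; decreased luminescence indicates inhibited growth, aimed at apicoplast-acting delayed death.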
LmPK inh – LmPK (Leishmania mexicana) enzyme inhibition | purified LmPK, Kinase-Glo ATP luminescence, 1 h | Potency, µM (top dose mostly 57.5 µM), inactives show at the highest dose activity change, negative = inhibition, actives largely listed as inhibitors | actives 0.37% (n = 290,000)
Target sequence (Q27686 whole entry, looked up): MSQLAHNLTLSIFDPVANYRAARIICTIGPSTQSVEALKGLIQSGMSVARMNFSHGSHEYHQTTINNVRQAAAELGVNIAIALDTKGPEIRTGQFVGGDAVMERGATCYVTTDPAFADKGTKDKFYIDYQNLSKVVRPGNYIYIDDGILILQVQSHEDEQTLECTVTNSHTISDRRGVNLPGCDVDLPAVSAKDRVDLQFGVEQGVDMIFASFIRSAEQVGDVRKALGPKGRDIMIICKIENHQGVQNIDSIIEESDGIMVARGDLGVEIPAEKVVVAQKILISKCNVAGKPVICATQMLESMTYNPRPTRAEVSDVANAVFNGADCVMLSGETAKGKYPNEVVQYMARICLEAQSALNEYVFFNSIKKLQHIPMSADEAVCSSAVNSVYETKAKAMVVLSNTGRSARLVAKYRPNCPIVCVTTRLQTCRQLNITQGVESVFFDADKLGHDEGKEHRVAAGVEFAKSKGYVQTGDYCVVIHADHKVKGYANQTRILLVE
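ATP generated from ADP (0.1 mM) and PEP (0.5 mM) by 0.1 nM LmPK over 1 h at room temperature (pH 7.2 imidazole buffer) was detected by coupled luciferase luminescence. Values were normalized to uninhibited and no-enzyme wells.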
Pf growth 48h – P. falciparum growth inhibition at 48 hours (one generation); P. falciparum luciferase growth in erythrocytes, 48 h; Potency, µM (titrated, usually from 28.7 µM), for the others: top-dose activity change, negative = inhibition, usual class: inhibitors; actives 5.9% (n = 310,000)
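Cell-based growth assay: transgenic P. falciparum expressing firefly luciferase, cultured in red cells within RPMI 1640 containing 0.5% w/v Albumax, 24 mM bicarbonate and gentamycin. A drop in luciferase activity indicates inhibition.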
TbPYK inhibitor – T. brucei pyruvate kinase inhibition; Potency, µM (titrated, usually from 76.8 µM), for the others: at the top dose activity, negative = inhibition, usual class: inhibitors; actives 0.12% (n = 410,000); AID 624173; TbPYK enzyme, Kinase-Glo Plus ATP luminescence, 45 min; Q57TT1; note: nearly all actives have a fitted effect of over 50% in size
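Readout: single end-point luminescence (Kinase-Glo Plus, 10 min). Reaction conditions were TbPYK/substrate plus 130 uM ADP, 45 min at RT, pH 7.2 TEA buffer. No-enzyme wells served as controls, and data were normalized before concentration-response fitting.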
HCV inh – HCV inhibition; Huh7.5.1 HCVcc-Cre infection, luciferase reporter, 44 h; Potency, µM (highest dose often 41.8 µM), without a hit: top-dose activity change, negative = inhibition, usual class: inhibitors; AID 651820; actives 3.4% (n = 340,000)
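Antiviral activity was scored by luciferase reporter output from cells infected with HCVcc-Cre (~0.5 moi) in presence of compound, 44 h infection period, cells seeded 1,000/well 4 h prior.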
* marks the source's active call; other numbers are inactive results; u = inconclusive; x = not tested or not shown; & = joins results of further samples; [ ] = dose if it differs, or a comment. Calls come from the whole dose curve; as a rule, active = well fitted curve in the direction sought with a large enough effect; inconclusive = small, poorly fitted or top-dose-only effect, or another doubt; inactive = no such curve, though single readings can be large; an effect the other way counts as inactive or inconclusive. % is set by controls: 0 for no effect and ±100 for the full control effect; potency is the fitted concentration of half-maximal effect. Only part of the results is shown, so the mix of outcomes need not match the whole.

| nr | canonical_smiles | Pf growth 96h | LmPK inh | Pf growth 48h |
| --- | --- | --- | --- | --- |
| 1 | C[C@H]1C[C@H]2[C@@H]3CCC4=CC(=O)C=C[C@]4(C)[C@@]3(F)[C@@H](O)C[C@]2(C)[C@@]1(O)C(=O)CO | u | x | -15.7% |
| 2 | Cc1ccc2nc(-c3ccc(NC(=O)CSc4ccccc4)cc3)[nH]c2c1 | u | 0.5% | u |
| 3 | CC12CCC3c4ccc(O)cc4CCC3C1CC(O)C2O (configuration not stated) | 0.9% | x | 8.1% |
| 4 | COCCNC(=O)CSc1nc2ccc(N3CCOCC3)cc2c(=O)n1CCc1ccccc1 | -24.9% | 2.1% | 0.0% |
| 5 | C[C@]12CC[C@H]3[C@@H](CCC4=CC(=O)CC[C@@]43C)[C@@H]1CC[C@@H]2O | u | x | u |
| 6 | CC1=NN(C(=O)c2ccc(C)o2)C(O)(c2ccccc2)C1 (configuration not stated) | 56.0%[activator] | -1.0% | 6.0% |
| 7 | O=C(O)c1cccc(C(=O)O)c1 | 42.7%[activator] | -9.8% | 2.6% |
| 8 | Fc1cnc(N2CCOCC2)nc1N1CCc2ccccc21 | x | 6.2% | u |
| 9 | C#CCCOC(=O)Nc1ccccc1 | u | -1.5% | 2.9% |
| 10 | CN(C)C(=O)Oc1ccc(OCc2cccc[n+]2C)cc1 | -24.3% | -0.5% | -15.2% |

| nr | TbPYK inhibitor | HCV inh |
| --- | --- | --- |
| 1 | 1.0%&-5.3% | -2.5% |
| 2 | -8.3% | 11.2µM* |
| 3 | -1.8% | 11.9% |
| 4 | 2.9% | 9.2%&-3.9% |
| 5 | 8.3%&0.8%&5.5% | 19.8%&-2.6% |
| 6 | -3.8% | 3.1% |
| 7 | 2.5% | -0.7% |
| 8 | -1.7% | u |
| 9 | 4.2% | 13.5% |
| 10 | -14.1% | 8.5% |

Complete entries, quoted from the list. Screens in order: Pf growth 96h | LmPK inh | Pf growth 48h | TbPYK inhibitor | HCV inh
Listed for `CC12CCC3c4ccc(O)cc4CCC3C1CC(O)C2O` (configuration not stated) → 0.9% | x | 8.1% | -1.8% | 11.9%
Listed for `C#CCCOC(=O)Nc1ccccc1` → u | -1.5% | 2.9% | 4.2% | 13.5%
Listed for `CN(C)C(=O)Oc1ccc(OCc2cccc[n+]2C)cc1` → -24.3% | -0.5% | -15.2% | -14.1% | 8.5%
Listed for `Cc1ccc2nc(-c3ccc(NC(=O)CSc4ccccc4)cc3)[nH]c2c1` → u | 0.5% | u | -8.3% | 11.2µM*
Listed for `CC1=NN(C(=O)c2ccc(C)o2)C(O)(c2ccccc2)C1` (configuration not stated) → 56.0%[activator] | -1.0% | 6.0% | -3.8% | 3.1%

Continuation:
| nr | canonical_smiles | Pf growth 96h | LmPK inh | Pf growth 48h |
| --- | --- | --- | --- | --- |
| 11 | CC[C@H](CO)NCCN[C@H](CC)CO | -0.6% | -3.6% | -5.4% |
| 12 | N=c1c(S(=O)(=O)c2ccc(Cl)cc2)cc2c(=O)n3ccccc3nc2n1C1CCCCC1 | u | -10.5% | 51.8%[activator] |
| 13 | COc1cccc(C(=O)N/N=C(/CCC(=O)O)c2ccccc2)c1 | 4.7% | -2.2% | 0.0% |
| 14 | Cc1nc(NC(=O)CSc2nnc(-c3ccc4c(c3)OCO4)o2)c(Cl)cc1Cl | 9.4% | -0.2% | 77.4%[activator] |
| 15 | Cc1cccc(OCC(=O)Nc2cc(C)on2)c1 | u | -2.1% | 31.5%[activator] |
| 16 | CC(C)Sc1nnc(NC(=O)C2CC2)s1 | 34.9%[activator] | -1.9% | 47.4%[activator] |
| 17 | Cn1ncc(Br)c1C(=O)O | -1.6% | 1.9% | 8.3% |
| 18 | C[C@]12CC[C@@H]3c4ccc(O)cc4CC[C@H]3[C@@H]1C[C@@H](O)[C@@H]2O | -16.7% | 1.2% | 2.1% |
| 19 | C/C(N)=C(/C#N)C(=O)COC(=O)c1ccccc1O | 56.1%[activator] | -0.6% | 38.0%[activator] |
| 20 | Fc1ccc(C2N3CCCN23)cc1 (configuration not stated) | 38.2%[activator] | -4.3% | 40.6%[activator] |

| nr | TbPYK inhibitor | HCV inh |
| --- | --- | --- |
| 11 | 0.1% | u |
| 12 | 3.0% | u |
| 13 | -6.9% | 1.5% |
| 14 | -0.1% | -25.0% |
| 15 | -12.5% | -14.5% |
| 16 | 1.8% | 5.6% |
| 17 | 5.4% | 8.0% |
| 18 | -7.8% | -1.0% |
| 19 | -8.5% | -1.6% |
| 20 | -3.8% | 27.9% |

2 entries picked at random from those above, as already listed:
| nr | canonical_smiles | Pf growth 96h | LmPK inh | Pf growth 48h |
| --- | --- | --- | --- | --- |
| 20 | Fc1ccc(C2N3CCCN23)cc1 (configuration not stated) | 38.2%[activator] | -4.3% | 40.6%[activator] |
| 17 | Cn1ncc(Br)c1C(=O)O | -1.6% | 1.9% | 8.3% |

| nr | TbPYK inhibitor | HCV inh |
| --- | --- | --- |
| 20 | -3.8% | 27.9% |
| 17 | 5.4% | 8.0% |

(list continues)
| nr | canonical_smiles | Pf growth 96h | LmPK inh | Pf growth 48h |
| --- | --- | --- | --- | --- |
| 21 | CCOC(=O)c1ccc(NC(=S)NNC(=O)C2(C)CC2(Cl)Cl)cc1 (configuration not stated) | u | 4.4% | 26.9% |
| 22 | O=c1c(O)c(-c2ccc(O)c(O)c2)oc2cc(O)cc(O)c12 | -5.1%&-4.7% | 1.8% | u |
| 23 | COc1ccc(-c2csc(-c3cccs3)n2)cc1OC | 485.4%[activator] | -2.1% | 186.9%[activator] |
| 24 | Cc1ccnc(NS(=O)(=O)c2ccc(N)cc2)n1 | 58.4%[activator] | 2.1% | -6.1% |
| 25 | COC(=O)C(Cc1ccc(OC(=O)c2ccccc2C)cc1)N1Cc2ccccc2C1=O (configuration not stated) | 33.1%[activator] | -5.5% | 28.2% |
| 26 | CCC(CO)NCCNC(CC)CO (configuration not stated) | 37.4%[activator] | 6.5% | 15.1% |
| 27 | C[N+]1(C)C2CC(OC(=O)C(CO)c3ccccc3)CC1C1OC12 (configuration not stated) | 4.0% | x | 3.2% |
| 28 | CC1(C)S[C@@H]2[C@H](NC(=O)[C@H](C(=O)O)c3ccsc3)C(=O)N2[C@H]1C(=O)O | 32.0%&-1.4% | 4.4% | -6.3%&-3.3% |
| 29 | O=c1[nH]c(CN(CCc2ccccc2)S(=O)(=O)c2ccc(Cl)cc2)nc2ccccc12 | 68.4%[activator] | -2.9% | 67.9%[activator] |
| 30 | CC(=O)OCC(=O)[C@@]1(O)CC[C@H]2[C@@H]3CCC4=CC(=O)CC[C@]4(C)[C@H]3C(=O)C[C@@]21C | 13.9% | -1.0% | -5.5% |
| 31 | CCCC(=O)Nc1ccc(NCc2ccc(C)s2)cc1 | u | 7.6% | u |
| 32 | CN(C)c1ccc(/C=C2/NC(=O)NC2=O)cc1 | u | -4.4% | 88.5%[activator] |
| 33 | O=C(Nn1c(SCc2ccc([N+](=O)[O-])cc2)nc2ccccc2c1=O)c1ccc(F)cc1 | u | -14.6% | 158.5%[activator] |

| nr | TbPYK inhibitor | HCV inh |
| --- | --- | --- |
| 21 | -12.5% | -0.1% |
| 22 | 20.4%&-19.5%&-20.1% | -11.9% |
| 23 | -13.5% | u |
| 24 | 3.9% | -3.9% |
| 25 | 8.4% | 5.6% |
| 26 | 4.7% | 8.5% |
| 27 | 7.5% | 8.4% |
| 28 | 2.0% | -5.4%[8.37 µM] |
| 29 | 4.0% | 6.1% |
| 30 | 1.3%&-8.7% | -6.0% |
| 31 | -7.7% | 13.8% |
| 32 | -8.5% | -9.9% |
| 33 | 0.7% | 1.5% |
